# From PubChem BioAssay
# D2 PAM – human D2 receptor positive allosteric modulation; hit rate 0.23% among 360,000; DiscoveRx D2 beta-arrestin cells, luminescence, 90 min; 100% = 57 uM dopamine signal; potentiation, % (concentration not given with the values); active = potentiation of 50% or more; inconclusive = 30% to 50%; inactive = 30% or less;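 further: compound concentration not given in the record; tested on top of an EC20 dose of dopamine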
# Target sequence (P14416 whole entry, looked up): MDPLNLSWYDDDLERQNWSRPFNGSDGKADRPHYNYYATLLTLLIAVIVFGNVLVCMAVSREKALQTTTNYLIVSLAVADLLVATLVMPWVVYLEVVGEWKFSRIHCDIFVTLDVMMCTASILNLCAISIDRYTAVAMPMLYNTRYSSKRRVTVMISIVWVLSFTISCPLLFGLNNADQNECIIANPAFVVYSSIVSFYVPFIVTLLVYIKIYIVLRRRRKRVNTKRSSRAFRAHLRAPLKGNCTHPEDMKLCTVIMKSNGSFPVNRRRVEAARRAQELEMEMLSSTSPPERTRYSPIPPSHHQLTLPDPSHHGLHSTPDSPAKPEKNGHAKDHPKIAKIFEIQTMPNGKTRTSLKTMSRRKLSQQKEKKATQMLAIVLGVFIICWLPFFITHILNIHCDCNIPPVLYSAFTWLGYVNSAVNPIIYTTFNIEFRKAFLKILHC
#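 PathHunter D2 cells, attached overnight at 37 deg C, received compound in DMSO plus dopamine at EC20 (50 nM final) for 90 min at 37 deg C. Beta-arrestin recruitment was read as luminescence after 1 h with detection reagent at ambient temperature.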
# Sfp inh – blocks B. subtilis Sfp PPTase activity | Biochemical Sfp PPTase activity, qHTS | hit rate 3.5% among 310,000 | Potency, µM, without a hit: max response, negative = inhibition, actives largely listed as inhibitors; active means well fitted inhibition curve with a large enough effect; inconclusive means small, poorly fitted or top-dose-only effect, or another doubt; inactive means no such curve, though single readings can be large or run the other way;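 further: the enzyme is Sfp with the accession as filed and its product quenches rhodamine fluorescence; potency means the concentration at half of the fitted maximal effect; 0% = enzyme reaction without inhibitor and -100% = no enzyme wells; top concentration of the series not given in the record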
#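 Fluorescence-quenching assay: 15 nM Sfp-PPTase preincubated 15 min at room temperature with compound, then 5 uM rhodamine-CoA and 12.5 uM BHQ-2-labelled YbbR peptide added. Fluorescence (ex 525/em 598 nm) read at start and after 30 min; difference gives rate.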
# gsp agonist – activates gsp, the McCune-Albright syndrome mutation; Potency, µM (titrated, usually from 76.9 µM), for inactives: top-dose activation (cAMP increase), usual class: activators; gsp mutant cells, cAMP HTRF, 30 min; control for the full effect not named in the record; AID 624287; hit rate 0.13% among 340,000; active = well fitted activation curve with a large enough effect; inconclusive = small, poorly fitted or top-dose-only effect, or another doubt; inactive = no such curve, though single readings can be large or run the other way; cell line not stated here;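 further: phosphodiesterase inhibitor Ro 20-1724 added with compounds to block cAMP breakdown; potency means the concentration at half of the fitted maximal effect; nearly all actives have a fitted effect of over 60% in size; about a fifth of the inactives were tested at one dose only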
#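 Cells in DMEM/10% FBS with G418 were pretreated with compounds in DMSO plus […] (300 uM stock) for 30 min at 37C. cAMP was measured by HTRF (cAMP-d2 plus anti-cAMP antibody-K) after 30 min at room temperature.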
# ClpP mod – qHTS Assay for Activators of ClpP; ATP-dependent Clp protease proteolytic subunit (Bacillus subtilis (strain 168)), P80244; purified B. subtilis ClpP, FRET peptide cleavage, 20 min; Potency, µM (doses to about 57.5 µM), inactives show at the top dose activity change, negative = active; hit rate 1.9% among 340,000; active = well fitted falling curve with a large enough effect; inconclusive = small, poorly fitted or top-dose-only effect; inactive = no such curve, though single readings can be large or run the other way; further: potency means the concentration at half of the fitted maximal effect; the source files actives as falling curves though it sought activators and does not explain the sign; nearly all actives have a fitted effect of over 65% in size; many hits overshoot -100%
# Target sequence (P80244 whole entry, looked up): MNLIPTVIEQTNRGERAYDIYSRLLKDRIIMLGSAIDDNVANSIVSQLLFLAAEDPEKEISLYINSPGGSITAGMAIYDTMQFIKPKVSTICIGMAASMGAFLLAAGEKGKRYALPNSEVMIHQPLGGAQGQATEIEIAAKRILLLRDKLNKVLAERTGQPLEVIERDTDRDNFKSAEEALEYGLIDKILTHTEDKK
#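 FRET quenching reversal measured ClpP activation: 10 microg/mL B. subtilis ClpP at pH 8 with the FRET-FV decapeptide, read at 430 nm after 320 nm excitation. The 20-min minus 0-min signal was scaled between DMSO/no-enzyme wells and ADEP (5.8 microM final).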
# gsp antagonist – antagonists of gsp mutant (McCune-Albright syndrome). gsp-mutant cells, cAMP HTRF, 30 min; control for the full effect not named in the record. Potency, µM (titrated, usually from 76.9 µM), for the others: at the highest dose activity change, negative = inhibition, usual class: inhibitors. hit rate 0.4% among 340,000. AID 624288; active = falling curve of any shape with a large fitted effect; inconclusive = falling curve, mostly with a smaller effect; inactive = flat or rising curve; cell line not stated here;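 further: intracellular cAMP measured with PDE inhibitor Ro 20-1724 present during compound exposure; potency means the concentration at half of the fitted maximal effect; on the % scale 0 is the no-effect control and ±100 the full control effect; nearly all actives have a fitted effect of over 65% in size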
#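 HTRF cAMP measurement after 30 min RT detection following 30 min, 37C compound treatment alongside […] (added as 300 uM solution) in G418-selected cells seeded at 2000/well and grown 16–24 h.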
# Menin MLL FP FL – inhibitors of human menin-MLL interaction, wild-type MLL peptide. Fluorescence polarization, fluorescein-MLL peptide displacement from menin. FP activity change, % at 61.4 µM. AID 1766. 290,000 tested, under 10 active; inconclusive = falling polarisation curve, or a change in total fluorescence; inactive = total fluorescence flat and polarisation flat or rising; no compound was filed as active; the % refers to the polarisation; negative = inhibition;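 further: % of control where 0% means no effect; inhibitors lower the polarisation; unlabelled MLL peptide was the positive control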
# TRPV1 PAM – potentiators of human vanilloid receptor 1 (TRPV1) | AID 540277 | TRPV1-expressing cells, Fluo-8 calcium influx, capsaicin EC20 potentiation; host cell line not named in the record; control for the full effect not named in the record | Q8NER1 | potentiation, % at 8.33 µM | hit rate 0.02% among 320,000; active means potentiation above 80%; inconclusive means 30% to 80%; inactive means below 30%; further: 0% is about no effect
#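 Fluo-8 calcium influx in TRPV1-expressing cells, kinetic read (ex 480/em 520 nm). Compound added and read 3 min for agonist activity, followed by capsaicin at EC20 final and 2 min further read for enhancement.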
# Active calls of the source: *; ? = inconclusive; · = no result given; [ ] = another dose, or the depositor's remark.
mol	TRPV1 PAM	Menin MLL FP FL	D2 PAM	gsp agonist	gsp antagonist	Sfp inh	ClpP mod
NNC(=O)c1ccc(Cn2cc(Br)cn2)o1	-20	-2.3	8	-1%	0%	5%	-0.2%
OCC[C@@H]1C[C@H](O)[C@@H](O)[C@@]2(OCc3cc(Cl)ccc32)O1	·	·	-1	22%	·	·	0.6%
Cc1cc(=O)n2[nH]c(-c3ccsc3-n3c(C)ccc3C)cc2n1	5	?	-5	7%	-13%	45µM*	1.4%
CC(=O)c1c(C)[nH]c(C(=O)COC(=O)CCCOc2ccccc2)c1C	-8	-0.3	-7	-1%[15.4 µM]	3%	19%	·
COc1ccc(CNC(=O)Cn2nc(Cc3cccnc3)c3ccccc3c2=O)cc1	2	0.3	-7	18%	-9%	2%	-1.1%
COc1cc2c(cc1OC)C(C)N(C(=O)c1c(C)noc1C)CC2 (stereo unspecified)	1	2.0	-15	-25%	12%	13%	2.0%
COc1ccc(NC(=O)C2=NN(C3CCS(=O)(=O)C3)C(=O)CC2)cc1S(N)(=O)=O (stereo unspecified)	·	·	-2	10%[15.4 µM]	3%	·	-0.5%
O=C(c1ccccc1NS(=O)(=O)c1ccc(F)cc1)N1CCCC1	2	-3.0	-8	22%	9%	18%	0.3%
CCOC(=O)c1cc(-c2ccc(C)cc2)n(CCC(=O)NCCN(C)C)c1C	-8	0.4	-17	9%	1%	-8%	-0.1%
CCOC(=O)[C@H]1[C@H]2COc3ccc(OC)cc3[C@@H]2N2C(=O)CN(Cc3ccc(Cl)cc3)C(=O)[C@@]12C	-9	·	-5	0%	-12%	·	-1.1%
O=C(Nc1ccc(Oc2ccc(S(=O)(=O)N3CCOCC3)cn2)cc1)c1ccco1	-4	2.2	-5	2%	-4%	-8%	-1.4%
CC(=O)c1cc(-c2ccccc2)n(CC(=O)N2CCC(C)CC2)c1C	2	3.0	-7	?	-3%	7%	-1.4%
COc1ccc(C(C)C)cc1S(=O)(=O)N1CCC(C(=O)NCC2CCCO2)CC1 (stereo unspecified)	13	·	-20	30%	2%	22%	-1.0%
Cc1ccc(S(=O)(=O)N2CCOCC2)cc1C(=O)N(Cc1nnc(-c2ccccc2Cl)o1)C1CC1	-2	·	-16	8%	-23%	12%	-0.3%
CC1=NN(C(C#N)c2cccc([N+](=O)[O-])c2)C(C)(C)C1 (stereo unspecified)	-2	6.4	-24	-22%	0%	1%	?
COc1cccc(C2CC(=O)N3CN(c4ccccc4F)CSC3=C2C#N)c1 (stereo unspecified)	3	12	-4	-2%	-5%	7.9µM*	1.2%
Cc1cc2occ(CC(=O)NC3CCCc4ccccc43)c2cc1C (stereo unspecified)	2	2.7	-6	8%[15.4 µM]	2%	-8%	·
CC1(C)CC(=O)C=C(c2ccc(Cl)c(C(F)(F)F)c2)C1	-10	·	-3	·	-1%	·	2.9%
CCOc1ccc2[nH]cc(S(=O)(=O)c3ccc(F)cc3)c(=O)c2c1	0	3.5	2	-24%	-17%	8%	-15%
Cc1cccc(NC(=O)CSc2nnc(-c3ccco3)c(-c3ccco3)n2)c1	25	9.8	-9	-7%[15.4 µM]	-14%	7.9µM*	·
Cn1c(Cn2cnc([N+](=O)[O-])n2)nnc1SCC(=O)Nc1ccccc1	5	1.3	6	5%[15.4 µM]	15%	22%	-0.9%
COc1cc(C(=O)Nc2ccccc2C2COC(=O)C2=N)cc(OC)c1OC (stereo unspecified)	1	3.0	9	-25%	9%	9%	-2.2%
OCCSc1ncnc2c1oc1ccccc12	-2	3.1	-21	-3%	20%	-1%	-1.4%
CNC(=S)N(CCN(C)C)Cc1cc2cc3c(cc2[nH]c1=O)OCO3	9	2.7	-9	-20%	11%	12%	·
N#C/C(=N\Nc1cccc(C(F)(F)F)c1)C(=O)c1csc(-c2cccnc2)n1	?	-1.8	-8	-11%	25µM*	0%	2.8%
O=C(c1cc2sccc2n1Cc1ccc(F)cc1)N1CCCc2ccccc21	-4	0.7	-11	-1%	?	2%	-1.7%
O=C(CNc1cccc(Cl)c1)NNC(=S)NCc1ccccc1	5	-0.3	-16	-2%[15.4 µM]	-18%	23%	-46%
Nc1cc(N)cc(-c2nc3ccccc3o2)c1	·	·	-4	-111%	-10%	·	-6.6%
COc1ccccc1N(Cc1cc(=O)[nH]c2ccccc12)C(=O)c1ccccc1	-16	0.1	-5	?	1%	-7%	·
CCn1cc(CCCC(=O)NCc2ccccc2OC)c2ccccc21	-3	-0.4	-9	?	?	-16%	-20%
CCOc1ccc2c(c1)C(C)=CC(C)(C)N2S(=O)(=O)c1ccc(NC(C)=O)cc1	-19	-8.7	10	-51%[inhibitor]	12%	14%	1.5%
CCc1ccc(OCCCC(=O)Nc2nccs2)cc1	-4	0.4	-7	1%[15.4 µM]	10%	20%	·
CCc1ccccc1NC(=O)C(Cc1cccc(OC)c1OC)c1nn[nH]n1 (stereo unspecified)	8	0.2	-5	-32%[inhibitor]	0%	4%	7.6%
Cc1cc(C)cc(NC(=O)C(C)N2C(=O)c3ccccc3C2=O)c1 (stereo unspecified)	?	-1.0	5	2%[15.4 µM]	6%	17%	0.4%
Cc1cc(C)nc(NS(=O)(=O)c2ccc(NC(=O)COc3ccccc3)cc2)n1	13	0.5	-8	-20%	-6%	13%	-0.5%
CC(=O)Nc1ccc(NC(=O)c2ccccc2Nc2ccccc2)cc1	?	-5.3	-9	-4%[15.4 µM]	-2%	5%	·
O=C(Nc1ccccc1)Nc1ccc(C(F)(F)F)cn1	4	-0.1	2	0%	-2%	11%	3.3%
COc1ccc(Br)cc1/C=N/NC(=O)C[n+]1ccccc1	2	-0.5	-8	-16%	12%	5%	-3.6%
CSCCC(=O)N1CC[C@@H](N2CCN(c3ccccc3F)CC2)[C@H](O)C1	-5	-1.4	8	7%	-2%	15%	2.4%
CC(=O)Nc1ccc(S(=O)(=O)N(CCO)Cc2ccccc2)cc1	-12	2.7	5	-26%	-2%	15%	-0.1%
CCN(CC)C(=O)c1ccccc1NS(=O)(=O)c1cccs1	2	·	-3	5%[15.4 µM]	9%	25%	-2.0%
CN(c1ccccc1)S(=O)(=O)c1ccc(C(=O)NCc2ccccn2)cc1	-10	0.7	-9	-3%[15.4 µM]	8%	-15%	·
Cc1nc(NCc2ccccc2)c(C(N)=O)c2c1COC(C)(C)C2	-28	4.9	-5	-26%	-10%	1%	22µM*
CCc1c(C(=O)NNC(=S)NCC(C)C)csc1C	-17	1.3	-21	?	5%	8%	0.5%
CC(=O)Nc1ccc(NC(=O)CSc2ccc(-c3ccc4c(c3)OCO4)nn2)cc1	11	6.5	-1	?	-16%	-21%	-0.9%
CN(CC(=O)Nc1cccc(F)c1)C(=O)c1cc(S(=O)(=O)N(C)C)ccc1N1CCCC1	6	·	-3	-46%[inhibitor]	-5%	10%	-5.0%
CNCc1cc(C)n(-c2cc(S(=O)(=O)N3CCOCC3)ccc2N2CCCC2)c1C	·	·	-30	-65%[inhibitor]	·	·	0.9%
CSc1ccc(Cl)c(C(=O)Nc2ccc(N3CCOCC3)cc2)c1	-6	-3.5	-9	-11%	-3%	-6%	-0.2%
CCOC(=O)Cc1csc(NC(=O)CSc2nnc(C(C)C)n2C)n1	-4	0.2	8	20%	-7%	-8%	0.5%
COc1ccc(NC(=O)C(C)N2C(=O)c3ccccc3C2=O)c(OC)c1 (stereo unspecified)	·	·	-3	-24%	4%	·	1.7%

# (list continues)
mol	TRPV1 PAM	Menin MLL FP FL	D2 PAM	gsp agonist	gsp antagonist	Sfp inh	ClpP mod
O=C(NCCC1CCCCN1S(=O)(=O)c1cccs1)C(=O)Nc1ccccc1 (stereo unspecified)	-9	·	-14	-10%[15.4 µM]	-5%	·	0.9%
Cc1ccccc1OCC(=O)NNC(=O)c1ccc2c(=O)n3c(nc2c1)CCC3	-1	·	-11	-23%	3%	·	-0.6%
COC(=O)CN1C(=O)[C@H]2[C@@H](c3ccc(C)o3)N3C(=O)CN(CCO)C(=O)[C@@]3(Cc3ccccc3)[C@H]2C1=O	-9	0.3	2	-15%	9%	-10%	-1.6%
CC(C)(C)NS(=O)(=O)c1ccc(NS(C)(=O)=O)cc1	1	-0.6	-8	-30%	5%	16%	-8.3%
O=S(=O)(c1ccc(F)c(F)c1)N1CCCc2ccccc21	2	5.9	-4	13%	-16%	4%	3.3%
Cc1ccccc1NC(=O)CNC(=O)Cc1cccc2ccccc12	4	·	-7	11%[15.4 µM]	-5%	·	-0.9%
O=C(CCc1nc2ccccc2c(=O)[nH]1)Nc1nnc(SCc2ccc(Cl)cc2)s1	10	·	-15	-24%[15.4 µM]	5%	·	·
O=C(NCc1ccccn1)C(=O)NCC1OCCCN1S(=O)(=O)c1ccc(F)cc1 (stereo unspecified)	2	·	0	?	3%	7%	-5.9%
CC(C)Cn1c(=S)[nH]c2cc(C(=O)O)ccc2c1=O	16	0.9	-8	-14%	8%	-26%	-4.6%
CCn1cnc2sc(C(=O)Nc3ccccc3OC)c(C)c2c1=O	-8	-0.3	-9	10%	-6%	12%	-5.2%
O=C1CCC(C(=O)NCCN2C(=O)S/C(=C\c3cccnc3)C2=O)=NN1	1	-2.1	-5	4%[15.4 µM]	15%	0%	-7.1%
CCCCSC(=S)N(C)C1CCS(=O)(=O)C1 (stereo unspecified)	2	4.1	10	-10%	6%	20%	-4.0%
Cc1ccc2nc(NC(=O)CSCC(=O)Nc3cc(C)on3)sc2c1	11	·	-1	16%	4%	·	-1.9%
COc1cc(Nc2nc(SCC#N)nc3ccccc23)cc(OC)c1OC	3	-1.6	-7	26%	5%	10%	-2.0%
CC(=O)c1ccc(OCc2cc(C(=O)N3CCN(c4ccccc4)CC3C)no2)cc1 (stereo unspecified)	-6	6.1	-6	17%	-28%	4%	-4.0%
OCc1nc2ccccc2n1CCc1ccccc1	-5	2.0	-4	-4%	5%	-1%	-3.2%

# Compounds were not picked by outcome; about 5.1% have a hit in one of these screens.
